Screening results from PubChem.
UUG fidelity: alters start codon recognition fidelity in yeast | S. cerevisiae UUG-firefly luciferase reporter, luminescence/redox ratio | activity score, % at 18.7 µM | 350,000 tested, 0.13% active | AID 602363;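 active = replicate mean at a twofold rise or more, about +100% in these data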;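 note: firefly luciferase made from a UUG start codon reports start codon fidelity; reporter light over untreated wells divided by growth signal over untreated wells; some hits fall short of that in this replicate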
HIV Env fusion: inhibitors of HIV Env-mediated cell fusion; HeLa-JRFL Env/CEM21 cell fusion, luciferase; inhibition, % at 12.3 µM; 360,000 tested, 1.1% active; AID 651610;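 active = mean replicate inhibition score of at least 50 and every replicate individually at or above 50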;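 note: 0% = plate neutral controls and 100% = maraviroc near 300 nM; one replicate is shown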
eIF4H FP inh: inhibitors of RNA binding by human eIF4H; inhibition, % at 35 µM; eIF4H fluorescence polarization binding assay; AID 2012; 290,000 tested, 0.94% active; Q15056;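 active = 50% or more with normal probe brightness, or confirmed in later tests; about a fifth of its hits are not listed in these tables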;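 note: calls also rest on retests at 20 µM and on dose response follow-up; 0% = protein and probe with vehicle and 100% = probe without protein; strong numbers were not always called active; many hits fall short of the cut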
MT1-MMP act inh: MT1-MMP (human) activation inhibition. P50281. HT1080 RFP-PRO-GFP cells, GFP/RFP ratio fluorescence, overnight; percent of plate control window, DMSO zero. GFP/RFP ratio change, % at 20 µM. 360,000 tested, 0.061% active. AID 651647;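 active = GFP/RFP ratio change of at least 30% with cell ATP level not reduced by more than half and red fluorescence within 50% of control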; note: strong numbers were not always called active
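Test system: HT1080 RFP-PRO-GFP cells; Benchmarks: DMSO and RFP-L50D-GFP cell wells; Timing: cells overnight before dosing, compound overnight, 37 °C, 5% CO2; Compound: one 20 µM compound dose with 1% DMSO; Read-out: GFP/RFP fluorescence ratio.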
CSC inhib: blocks cancer stem cells | 300,000 tested, 1.1% active | inhibition, % at 7.5 µM | cancer stem cell-like cells viability, luminescence;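 active = mean at 75% or more and at least half the replicates too; tested in HMLE shEcad cells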;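 note: 0% = median of negative and 100% = median of positive control wells; the first replicate is given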
Rce1 inhib: yeast Ras-converting enzyme inhibition. Q03530. yeast membranes, quenched prenylated peptide cleavage fluorescence. calls only. 290,000 tested, 0.27% active. AID 2563;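 active = fall in fluorescence gain of 50% or more versus controls, with final raw signal at or below 3038400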;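 note: plate controls were neutral control wells for no effect and wells lacking membranes for full effect; tested at 10 µM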
Target sequence (Q03530 whole entry, looked up): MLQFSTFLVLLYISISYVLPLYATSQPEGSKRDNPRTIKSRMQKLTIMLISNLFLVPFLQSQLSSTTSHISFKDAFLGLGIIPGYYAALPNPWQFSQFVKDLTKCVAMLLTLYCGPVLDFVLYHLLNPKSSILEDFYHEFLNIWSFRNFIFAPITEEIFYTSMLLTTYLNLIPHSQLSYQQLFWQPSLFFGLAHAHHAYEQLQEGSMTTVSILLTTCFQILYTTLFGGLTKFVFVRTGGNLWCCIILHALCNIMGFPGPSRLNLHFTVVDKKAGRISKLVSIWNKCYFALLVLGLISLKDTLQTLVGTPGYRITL
PABP FP inh: PABP-poly(A) binding inhibition; PABP-poly(A) RNA binding, fluorescence polarization; inhibition, % at 35 µM; 290,000 tested, 1% active; AID 2014;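 active = 50% or more with normal probe brightness, or confirmed in later tests; about a fifth of its hits are not listed in these tables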;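 note: calls also rest on retests at 20 µM and on dose response follow-up; controls were probe without protein and protein plus probe with vehicle; some compounds called inactive have numbers as strong as hits; many hits fall short of the cut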
Target sequence (P11940 whole entry, looked up): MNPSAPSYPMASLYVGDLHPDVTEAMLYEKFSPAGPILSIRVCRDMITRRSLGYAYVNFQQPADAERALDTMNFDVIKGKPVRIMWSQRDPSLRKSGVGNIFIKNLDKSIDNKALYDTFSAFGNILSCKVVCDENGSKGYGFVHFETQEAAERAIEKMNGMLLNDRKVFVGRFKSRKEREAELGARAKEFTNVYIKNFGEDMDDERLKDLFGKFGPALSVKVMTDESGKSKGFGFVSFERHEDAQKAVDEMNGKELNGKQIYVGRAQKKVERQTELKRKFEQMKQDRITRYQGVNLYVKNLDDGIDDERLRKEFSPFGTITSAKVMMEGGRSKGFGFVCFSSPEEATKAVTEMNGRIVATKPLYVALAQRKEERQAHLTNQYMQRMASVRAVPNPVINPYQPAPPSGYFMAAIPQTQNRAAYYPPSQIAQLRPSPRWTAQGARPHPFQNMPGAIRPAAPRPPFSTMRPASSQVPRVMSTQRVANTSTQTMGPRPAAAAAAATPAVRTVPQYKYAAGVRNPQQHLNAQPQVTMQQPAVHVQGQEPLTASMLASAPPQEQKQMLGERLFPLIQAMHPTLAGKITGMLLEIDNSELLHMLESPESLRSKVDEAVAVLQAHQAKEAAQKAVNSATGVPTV
eIF4H FP inh retest: second read-out of eIF4H FP inh, no call of its own (marks repeat the call); inhibition, %; compound at 20 µM; confirmation average;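 mean of two retest wells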
PABP FP inh retest: recorded beside PABP FP inh, whose call it bears; inhibition, %; compound at 20 µM; confirmation repeats;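 mean of two retest wells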
MT1-MMP act inh RFP: also measured in MT1-MMP act inh; calls as there; RFP signal change, %; measured here: RFP expression control read;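 0 = vehicle wells; hits needed this value within 50% of zero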
* = called active by the depositor; i = inactive; · = not tested or not shown. A portion of the library, so the mix of outcomes need not match the whole.

SMILES	UUG fidelity	HIV Env fusion	eIF4H FP inh	MT1-MMP act inh	MT1-MMP act inh RFP	CSC inhib	Rce1 inhib	PABP FP inh	others
COC(=O)c1cccc(NC(=O)CN2C(=O)C3CCCCC3C2=O)c1 (stereo not drawn)	-6	2	·	2	3	·	·	·
S=C(Nc1ccc(Cl)cc1Cl)Nn1cnnc1	-18	-36	-10	-2	-3	1	i	-4
Cc1cc(C2=CC(C)(c3cc(C)oc3C)Nc3nc(C(F)(F)F)nn32)c(C)o1 (stereo not drawn)	·	·	0	·	·	30	·	15
Cc1ccc(C(=O)NC(NCc2ccco2)C(Cl)(Cl)Cl)cc1 (stereo not drawn)	·	-4	-3	1	0	4	i	-4
CC(=O)N1CC[n+]2c(-c3ccc(Cl)cc3)csc21	·	-7	-1	-1	-1	-2	i	-7
O=C(c1ccc(F)cc1)N1CCN(S(=O)(=O)c2ccc(Br)cc2)CC1	-20	2	-2	-2	-3	-18	i	5
O=C1C=C(c2ccc(Oc3ccccc3)cc2)C[C@@H](c2ccc3c(c2)OCO3)C1	-13	2	·	10	1	19	·	·
Cc1ccc(CS(=O)(=O)CCC(=O)NCCN2CCCC2)cc1	·	·	1	-4	4	-2	i	-4
COC(=O)c1cc2occc2n1CC(=O)N(C)C1CCCCC1	·	·	15	1	-2	-3	i	11
CNS(=O)(=O)c1cccc(C(=O)OCC(=O)N2c3ccccc3CC2C)c1 (stereo not drawn)	-9	·	-4	14	4	-6	i	-5
CSc1nc2ccc(NC(=O)C3CC(=O)N(Cc4ccccc4)C3)cc2s1 (stereo not drawn)	-1	-27	-8	-4	-5	-2	i	-3
Cc1ccnc(N2CCC(C(=O)NCc3ccccc3F)CC2)n1	·	0	2	-1	-3	9	i	0
COc1ccc(NC(=O)CSc2ccc3nnc(CCNC(=O)c4ccccc4)n3n2)cc1OC	-23	-7	6	2	4	-18	i	4
C#CCOCCOCCOCCNc1nc(N2CCN(C(=O)[C@H]([C@@H](C)O)n3cc(CCCCN)nn3)CC2)nc(N2CCN(C(=O)[C@H](C)n3cc(CCCN=C(N)N)nn3)CC2)n1	-5	·	19	-4	3	4	i	4
Cc1cc(C)c2c(NC(=O)CCl)nn(C)c2n1	-12	15	-3	2	1	2	i	13
O=C(/C=C/c1ccccc1)Nc1sc2c(c1C(=O)O)CCC2	-24	-10	25	0	-1	12	i	18
CN(C)c1ccc(CCc2ccc(N)cc2)cc1	-14	20	·	-8	-5	26	i	·
COc1ccc(/C=C/C(=O)NCC(=O)N/N=C(\C)Cc2ccccc2)cc1	·	7	-8	2	5	0	i	-12
Cc1cc(C)c(S(=O)(=O)NCCC2CCCN2C)c(C)c1 (stereo not drawn)	6	-29	-2	-1	-2	-8	i	5
CC(C)=CCN1CCN(Cc2ccc(C)s2)CC1CCO (stereo not drawn)	·	1	0	-1	3	1	i	-2
O=C(c1ccc(F)cc1)N(c1ccccn1)C1CCCCC1	-4	2	0	-3	-3	-4	i	-11
CC(C)=CC(=O)OCC(=O)Nc1cc(C)cc(C)c1	-5	-4	-5	-2	2	1	i	2
Cc1cccc(C)c1NC(=O)CSc1nnc(C)n1CC1CCCO1 (stereo not drawn)	·	13	-5	4	2	-10	i	-2
CC(C)C(NS(=O)(=O)c1ccccc1)C(=O)NC1CCCC1 (stereo not drawn)	-8	6	4	3	4	-37	i	5

3 entries out of the list, arranged by molar mass, lowest first.
SMILES	UUG fidelity	HIV Env fusion	eIF4H FP inh	MT1-MMP act inh	MT1-MMP act inh RFP	CSC inhib	Rce1 inhib	PABP FP inh	others
CC(C)=CC(=O)OCC(=O)Nc1cc(C)cc(C)c1	-5	-4	-5	-2	2	1	i	2
Cc1cccc(C)c1NC(=O)CSc1nnc(C)n1CC1CCCO1 (stereo not drawn)	·	13	-5	4	2	-10	i	-2
C#CCOCCOCCOCCNc1nc(N2CCN(C(=O)[C@H]([C@@H](C)O)n3cc(CCCCN)nn3)CC2)nc(N2CCN(C(=O)[C@H](C)n3cc(CCCN=C(N)N)nn3)CC2)n1	-5	·	19	-4	3	4	i	4

Next part:
SMILES	UUG fidelity	HIV Env fusion	eIF4H FP inh	MT1-MMP act inh	MT1-MMP act inh RFP	CSC inhib	Rce1 inhib	PABP FP inh	others
O=C(Cc1ccc(F)cc1)N[C@@H]1c2ccccc2CC[C@@H]1OCc1ccccc1	-25	-13	·	-1	-2	·	·	·
COc1cc(SC)ccc1C(=O)Nc1cccc(C2OCCCO2)c1	-10	-16	-6	4	6	·	i	5
Cc1cc(=O)[nH]c(N2CCN(c3ccc(Cl)cc3)CC2)n1	-19	-9	·	5	-3	-16	i	·
CNC(=O)CNC(=O)Nc1ccc(C)cc1	·	10	-2	2	4	-8	i	10
CCSc1ccc([C@@H]2[C@H]3C(=O)N(C)C(=O)[C@H]3[C@]3(C(=O)OC)CCCCN23)cc1	-19	-24	·	0	-3	13	·	·
CCn1cc(C(=O)NC(=S)Nc2ccccc2[N+](=O)[O-])cn1	-10	-18	-7	-1	0	28	i	-6
NNC(=O)CS(=O)(=O)CS(=O)(=O)CC(=O)NN	·	-6	-7	-2	-1	-17	i	0
COc1cc(OC)cc(-c2cc3nc4c(c(N5CCN(c6ncccn6)CC5)n3n2)CCCC4)c1	·	·	-5	-5	-6	-6	i	-9
O=C(NNC(=S)Nc1ccc(Cl)cc1)c1cccs1	·	-20	9	2	3	-9	i	0
COc1cccc(/C=C(\CC(=O)O)c2nc3ccccc3s2)c1	-5	-5	-4	-7	-4	16	i	-2
CCOc1ccccc1-n1c(SCC(=O)Nc2ccccc2C(=O)O)nc2ccccc2c1=O	-7	-16	2	-2	2	-12	i	8
Cc1ccccc1CNC(=O)c1csc([C@@H]2C[C@H](O)[C@@H](CO)O2)n1	-5	8	·	2	3	·	·	·
COc1ccccc1NC(=O)CSc1nc(O)cc(=O)n1C	-19	-11	-18	2	7	-11	i	-17
Cc1cccc(C)c1NC(=O)CSc1nnnn1-c1ccc(C(=O)O)cc1	-12	·	-4	-1	1	-7	i	1
COc1cccc(N2CCN(C(=O)C3CCC(=O)N(C4CCCCCC4)C3)CC2)c1 (stereo not drawn)	-15	3	-3	19	-7	3	i	-3
O=Nc1c(-c2ccccc2)[nH]n(-c2ccccc2)c1=O	-15	-39	-5	-1	3	-1	i	-4
COc1ccc([N+](=O)[O-])cc1NC(=O)CC(c1ccccc1)c1ccccc1	-17	·	-2	-3	-8	0	i	14
CCOc1ccccc1NC(=O)CSc1n[nH]c(=O)n1-c1ccccc1	-16	13	·	0	1	-12	i	·
CCOCCCNC(=O)Cc1c(C(=O)O)[nH]c2ccc(Cl)cc12	-22	12	2	1	5	-9	i	-6
CCn1cc(/C=C/C(=O)Nc2c(C)nn(Cc3ccccc3)c2C)cn1	·	·	2	2	-3	4	i	14
Cc1cc2c(NC(=O)Nc3ccccc3)cccc2nn1	3	-3	4	6	1	-1	i	20
CCN(CC)S(=O)(=O)c1ccc(N2CCN(S(=O)(=O)c3ccccc3)CC2)nc1	-10	4	-10	-6	-5	·	i	3
Cn1cnc([N+](=O)[O-])c1NCc1ccccc1	3	-6	-10	-1	0	22	i	-5
O=C(Cn1cc2c(n1)CCCC2)Nc1ccccc1Br	-10	3	7	1	1	-4	i	-8
Cc1nonc1OC(C)CNCCNc1ccc([N+](=O)[O-])cc1 (stereo not drawn)	-13	-6	12	8	-2	-12	i	4
CCc1nc2ccc(C(=O)NCC3CCCCC3)cn2c1N(CCC(C)C)CCN(C)C	-7	-10	·	-6	-2	·	·	·
CCN(CC)S(=O)(=O)c1ccc(OC)c(NC(=O)C(C)Oc2ccc3c(C)cc(=O)oc3c2)c1 (stereo not drawn)	-3	-6	2	-5	-6	-15	i	-6
CN1C(=O)C2(OCCCO2)c2cc(Cl)ccc21	-1	-4	-5	0	5	-20	i	-4
Cc1cc(C)nc(N2N=C(CSc3ccc(Cl)cc3)CC2=O)n1	·	-7	8	4	6	66	i	-7
Cc1ccc(-c2nn(-c3ccccc3)cc2/C=C/C(=O)Nc2nccs2)cc1	5	-5	-3	3	1	15	i	-11
Cc1ccc(NC(=O)COC(=O)Cn2nc(C)c([N+](=O)[O-])c2C)c([N+](=O)[O-])c1	-6	-19	-11	-2	1	-10	i	-7
CCC(C)c1ccc(Nc2ncccc2C#N)cc1 (stereo not drawn)	-8	·	-10	-4	-3	1	i	1
Cc1cccc(C)c1OCCSc1nc2ccccc2n1CC(=O)O	4	13	7	4	0	-6	i	1
CN(C)c1cc[n+](CC(=O)c2cccs2)cc1	-14	-13	-4	0	0	4	i	1
Cc1ccccc1NC(=O)COC(=O)CCC(=O)c1cccs1	-10	-10	·	0	5	·	·	·
COC(=O)CSc1ncc(OC)c(OC)n1	-21	-27	-10	2	9	-1	i	2
NC(=S)N/N=C1\CC(c2ccc3c(c2)OCCO3)Oc2ccc(F)cc21 (stereo not drawn)	·	2	-4	0	-5	3	i	4
O=C(NCC(=O)N1CCCC1)c1ccccc1F	-18	-10	0	0	2	-4	i	7
C/C(=N\Nc1nnc(-c2ccccc2)c(-c2ccccc2)n1)c1cccc([N+](=O)[O-])c1	-15	6	0	6	-1	-6	·	2
Cc1ccc(C(=O)OCC(=O)N2CCNC2=O)c(C)c1	-29	0	·	7	2	·	·	·
O=[N+]([O-])c1cc([N+](=O)[O-])c(Oc2ccc(Br)cc2Br)cc1NN1CCCCC1	-16	34	-7	-2	-4	19	i	12
Cc1ccc(-n2c(C)cc(C(=O)CN3CCCCC3)c2C)cc1	·	28	0	0	1	7	i	-11
Cc1csc(NC(=O)CSc2sc3c(O)cc(=O)[nH]c3c2C#N)n1	-5	1	64*	-6	1	-13	·	41*	eIF4H FP inh retest=87*;PABP FP inh retest=87*
CNC(=O)c1c(NC(=O)C(C)C)sc2c1CCC2	-10	-7	3	2	0	·	i	5
CN(C(=O)COC(=O)c1n[nH]c2ccccc12)c1ccccc1	·	-3	0	-2	1	2	·	7
O=C(OCn1nnc2ccccc2c1=O)c1ccco1	-10	-19	-1	2	5	-6	i	-19
CCC/C=C1/CCCOC(C(=O)NCc2ccc(S(C)(=O)=O)cc2)(C(F)(F)F)C1 (stereo not drawn)	21	15	·	1	1	2	i	·
COC(=O)COc1cc2ccccc2cc1C(=O)Nc1ccccc1	·	4	-8	3	3	-21	i	-4
S=C(NCc1ccc(Cl)cc1)Nc1ccccc1Cl	·	-6	-6	-2	2	-6	i	6
CC(C)COc1ccccc1C(=O)NC(CO)C(=O)O (stereo not drawn)	-10	10	-5	3	3	·	i	4
CC(=NNC(=S)N1CCCC1)c1ccccn1	-24	33	·	6	1	·	·	·
CC1CCC(NC(=O)c2cccc(S(=O)(=O)N3CCOCC3)c2)CC1 (stereo not drawn)	-7	1	·	6	3	·	·	·
CCOC(=O)C1=CC[C@@H](c2ccccc2)N(S(=O)(=O)c2ccc(C)cc2)[C@H]1/C=C/c1ccccc1	0	36	·	-4	-12	·	·	·
c1ccc(OCc2nn3c(-c4cccnc4)nnc3s2)cc1	-1	-73	2	3	-3	-6	i	-6
Cc1cc(C(=O)NNC(=O)Nc2ccc(Cl)cc2)no1	-16	-3	-6	-2	2	1	i	-15
CCC(C)N(NC(C)=O)c1nc(Cl)nc(NC(C)(C)C)n1 (stereo not drawn)	-15	·	-5	1	1	-1	i	0
COCCN(CCOC)S(=O)(=O)c1ccc(C(=O)Nc2c(C)n(C)n(-c3ccccc3)c2=O)cc1	-24	4	-4	2	2	-8	i	-4

Grouped by structure: those above with a CF3 group
SMILES	UUG fidelity	HIV Env fusion	eIF4H FP inh	MT1-MMP act inh	MT1-MMP act inh RFP	CSC inhib	Rce1 inhib	PABP FP inh	others
Cc1cc(C2=CC(C)(c3cc(C)oc3C)Nc3nc(C(F)(F)F)nn32)c(C)o1 (stereo not drawn)	·	·	0	·	·	30	·	15
CCC/C=C1/CCCOC(C(=O)NCc2ccc(S(C)(=O)=O)cc2)(C(F)(F)F)C1 (stereo not drawn)	21	15	·	1	1	2	i	·
